GALR2 ag – GALR2 (human) receptor agonism; O43603; GALR2-expressing cells, agonist activation read-out; activation, %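 (tested at 5 µM)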; 140,000 compounds, 0.48% hits; AID 803;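 active means above mean plus 3 SD of all compounds, about 5% in these data, not always enough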;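 further: 0% = vehicle buffer wells and 100% = reference agonist at full effect; tested in CHO reporter cells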
Target sequence (O43603 whole entry, looked up): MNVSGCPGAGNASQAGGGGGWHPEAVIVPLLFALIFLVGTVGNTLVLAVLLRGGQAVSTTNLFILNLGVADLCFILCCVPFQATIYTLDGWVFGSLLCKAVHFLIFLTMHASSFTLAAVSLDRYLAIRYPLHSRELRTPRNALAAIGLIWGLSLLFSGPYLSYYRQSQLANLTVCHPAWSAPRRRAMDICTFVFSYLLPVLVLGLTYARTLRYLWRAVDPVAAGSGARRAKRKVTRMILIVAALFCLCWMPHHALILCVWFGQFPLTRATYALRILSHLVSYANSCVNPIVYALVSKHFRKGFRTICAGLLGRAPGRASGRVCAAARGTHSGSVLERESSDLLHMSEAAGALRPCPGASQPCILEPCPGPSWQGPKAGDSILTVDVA
PKD1 inh – blocks activity of human protein kinase D1. Q15139. PKD1 kinase fluorescence polarization assay. inhibition, %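 (about 10 µM by stock and volumes)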. 200,000 compounds, 0.056% hits. AID 797;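 active means inhibition of 50% or more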;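 further: controls were vehicle for no effect and a reference inhibitor for full effect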
RGS16-Gao HTS – RGS16-Galphao interaction regulator (human) | bead-based flow cytometry RGS16-Galphao binding, fluorescence; actives lie on both sides | binding response (% of control), % at 10 µM | O15492+P09471 | 220,000 compounds, 0.38% hits | AID 1441;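 active means below 25% or above 175%, edge rows of some plates excepted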;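 further: Galphao activated by GDP with aluminum fluoride before binding; 100% = wells without compound and 0% = beads without RGS; some results beyond the cut were filed as inactive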
Target sequence (O15492 whole entry, looked up): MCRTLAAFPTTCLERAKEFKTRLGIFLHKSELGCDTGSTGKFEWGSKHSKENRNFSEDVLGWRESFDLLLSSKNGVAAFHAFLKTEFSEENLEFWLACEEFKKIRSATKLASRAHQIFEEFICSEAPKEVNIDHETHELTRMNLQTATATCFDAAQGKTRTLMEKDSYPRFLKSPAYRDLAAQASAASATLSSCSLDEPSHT
Target sequence (P09471 whole entry, looked up): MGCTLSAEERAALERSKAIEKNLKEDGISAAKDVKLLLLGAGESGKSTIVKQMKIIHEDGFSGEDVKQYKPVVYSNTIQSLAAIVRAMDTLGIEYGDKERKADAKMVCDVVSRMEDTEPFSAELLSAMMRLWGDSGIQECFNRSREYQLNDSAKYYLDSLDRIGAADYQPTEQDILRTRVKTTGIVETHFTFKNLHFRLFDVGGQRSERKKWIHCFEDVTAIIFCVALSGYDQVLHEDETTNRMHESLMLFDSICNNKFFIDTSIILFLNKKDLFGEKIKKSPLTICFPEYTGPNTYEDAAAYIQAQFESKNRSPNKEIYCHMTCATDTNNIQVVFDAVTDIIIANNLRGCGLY
HSV replic up – increases HSV replication in cells. 220,000 compounds, 0.005% hits. maximum fold increase. HSV replication augmentation in cells, fold increase. AID 1956;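 active means peak rise of 1.5-fold or more in the series; tested in PC3 cells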;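 further: first round at 10 µM; read as green reporter fluorescence; hits show the peak of a series up to 25 µM; 1 = signal of infected wells without compound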
INS promoter inh – TRM-6 insulin promoter activity inhibition | AID 1273 | inhibition, % at 2 µM | 130,000 compounds, 0.9% hits | TRM-6 cells (human fetal islet line), insulin promoter-eGFP reporter, imaging; reporter expression induced with tamoxifen;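 active means inhibition above the mean plus 3 SD, with well images judged a real hit on visual review, cut at about 60% in these data, passing the limit was not always enough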
INS promoter inh cell count – also measured in INS promoter inh; calls as there; normalized cell count, %; measured here: cell count, toxicity; reference of the scale not given here;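 cells exposed to compound for 48 h; stained nuclei by imaging scaled within each plate; lower means fewer cells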
HSV replic up primary fold – second read-out of HSV replic up, no call of its own (marks repeat the call); fold increase; compound at 10 µM; measured here: primary screen fold increase 10 uM; tested in PC3 cells;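 GFP signal in the first replicate; 1 = infected wells without compound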
* marks the source's active call; other numbers are inactive results; i = inactive; / = no result given.

SMILES	GALR2 ag	PKD1 inh	RGS16-Gao HTS	HSV replic up	HSV replic up primary fold	INS promoter inh	INS promoter inh cell count
O=C(OCC(=O)c1c[nH]c2ccccc12)c1ccc([N+](=O)[O-])s1	/	-10	95	i	0.85	/	/
N#C/C(=C/Nc1ccccc1)c1ccsc1	-0.5	-7	105	i	1.1	-11	132
CS(=O)(=O)c1nncn1-c1ccccc1	-1.2	-2	103	i	0.96	8	164
O=C(c1ccc(SCc2ccco2)c([N+](=O)[O-])c1)N1CCOCC1	/	-6	98	i	1	/	/
COc1ccc(OC)c2[nH]c(=O)c(CCNC(=O)c3ccc(Br)o3)cc12	-0.5	-2	151	i	0.99	86*	123*
CCN(CC)C(=O)Cn1cc(C(=O)C(=O)NCc2ccco2)c2ccccc21	/	0	194	i	0.96	-58	77
CCc1ccc(-c2nn[nH]n2)cc1	-0.4	-2	104	i	1	/	/
CCOC(=O)CNC(=O)CSc1nc2cccnc2n1C	-0.6	-5	84	i	0.93	-30	66
Cn1c(C(=O)O)cc2c(=O)n3ccccc3nc21	/	/	103	i	0.94	/	/
CCOc1ccc(CN2CCNC(=O)C2CC(=O)NCCCn2ccnc2)cc1 (centres undefined)	/	1	98	i	1	/	/
O=C1N=C2SCCN2/C1=C\c1ccc(Cl)cc1	-0.8	-7	103	i	0.98	14	145
Cc1nn(Cc2ccccc2)c(Cl)c1C(=O)NCc1ccc(C)n1C	-2.5	-1	95	i	0.9	-16	143
CCOc1ccc(-n2c(=S)sc3c(=O)[nH]c(SCC(=O)NC(C)CC)nc32)cc1 (centres undefined)	-0.4	4	-42	i	0.9	29	120
NNC(=O)c1nn(-c2ccc(Cl)cc2)ccc1=O	-0.8	-7	97	i	1.1	/	/
c1ccc(-c2nnc(-c3ccco3)n2-c2ccccc2)cc1	-0.3	-3	98	i	0.83	-57	76
Cc1ccc(NC(=O)C2CC2C)c(Cl)c1 (centres undefined)	/	1	101	i	0.96	/	/
O=C(CNC(=O)c1ccc(Cl)cc1)NCCCn1ccnc1	-0.7	-3	101	i	1.1	/	/
CSCCC(NS(=O)(=O)c1ccc(Cl)cc1)C(=O)OCC(=O)NC12CC3CC(CC(C3)C1)C2 (centres undefined)	-1.6	-10	101	i	0.96	6	63
CSCc1cc(N2CCOCC2)nc(-c2ccccc2)n1	/	-3	117	i	0.89	9	124
O=C(CNc1ccc2ccccc2c1)N/N=C/C=C/c1cccc([N+](=O)[O-])c1	-0.1	-4	102	i	0.84	/	/
COc1ccc(COC(=O)c2ccc(N3CCCC3=O)cc2)cc1F	-1.2	14	111	i	0.9	-69	88
COc1cccc(NS(=O)(=O)c2ccc3[nH]cc(C(=O)NCCCOC(C)C)c(=O)c3c2)c1	-2.6	5	103	i	0.96	/	/
COc1ccc(OCC(O)CNc2ccc(Br)cc2)cc1 (centres undefined)	-0.5	3	109	i	0.91	-59	132
COc1ccc(CCNC(=O)Cc2ccc3c(c2)OCO3)cc1OC	-0.1	-9	98	i	1.2	-22	115
c1cncc(CN=C2Nc3ccccc3CS2)c1	/	-5	99	i	1.2	45	98
N=c1sccn1CC(=O)Nc1ccc(Cl)c(S(=O)(=O)N2CCOCC2)c1	-1.5	-3	100	i	0.9	-37	62
COC(=O)/C(=C1\Oc2ccc(C(C)(C)C)cc2S1)C(F)(F)F	-1.6	-8	104	i	0.91	20	73
COc1cccc(NC(=O)CSc2nc3ccccc3c3nc4ccccc4n23)c1	4.3	21	111	i	0.69	/	/
O=C(N1CCN(c2ccccc2)CC1)C(F)(F)C(F)F	0.1	-3	102	i	0.91	-52	101
CCOC(=O)c1ccc(NC(=O)CSCCC(=O)O)cc1	/	-4	70	i	1	-20	72

Only RGS16-Gao HTS and INS promoter inh cell count (four entries from above):
| Structure | RGS16-Gao HTS | INS promoter inh cell count |
| --- | --- | --- |
| CCOC(=O)c1ccc(NC(=O)CSCCC(=O)O)cc1 | 70 | 72 |
| COc1ccc(CCNC(=O)Cc2ccc3c(c2)OCO3)cc1OC | 98 | 115 |
| CSCCC(NS(=O)(=O)c1ccc(Cl)cc1)C(=O)OCC(=O)NC12CC3CC(CC(C3)C1)C2 (centres undefined) | 101 | 63 |
| COc1ccc(OCC(O)CNc2ccc(Br)cc2)cc1 (centres undefined) | 109 | 132 |

(cont.)
SMILES	GALR2 ag	PKD1 inh	RGS16-Gao HTS	HSV replic up	HSV replic up primary fold	INS promoter inh	INS promoter inh cell count
Cc1cc(C)cc(N2C(=O)c3nccnc3C2=O)c1	-0.5	-8	83	i	0.92	56	120
C#CCN1C(=O)C(O)(CC(=O)c2ccc3c(c2)OCCO3)c2ccccc21 (centres undefined)	-1.2	-2	101	i	0.79	/	/
COC(=O)c1sc(N)c(C(=O)OC)c1CSc1nc2sc3c(c2c(=O)n1C)CCC3	-2.0	1	111	i	0.71	10	120
CC(C)n1c(SCc2ccccc2F)nc2c1c(=O)n(C)c(=O)n2C	-1.6	-3	105	i	1	/	/
COc1cc(C2C(C#N)=C(SC)NC3=C2C(=O)CCC3)ccc1O (centres undefined)	/	/	89	i	0.93	/	/
CC(=O)c1ccc(NC(=O)C(C)OC(=O)c2ccc(NS(=O)(=O)c3ccc(F)c(F)c3)cc2)cc1 (centres undefined)	-0.5	-1	103	i	0.92	15	140
Cc1csc(NC(=O)C2CCCC2)n1	-1.6	6	100	i	1	28	25
CC12CCC(C(=O)Nc3cc(Cl)ccc3Cl)(C/C1=N\O)C2(C)C (centres undefined)	-2.2	0	102	i	0.77	-39	89
O=C(Cc1coc2ccc3ccccc3c12)NCc1cccs1	-0.2	-1	100	i	0.96	3	153
O=C(O)/C=C/c1ccccc1Oc1ccc(Cl)cc1Cl	/	1	170	i	1	-173	44
Nc1ccccc1Nc1cc(-c2ccccc2)[nH]n1	/	-8	100	/	/	/	/
C=CCN(c1ccc(C(=O)Nc2cccc(C)c2)cc1)S(C)(=O)=O	/	33	101	i	0.94	15	86
CCCCNCc1cc(Br)c(OCC(=O)N2CCOCC2)c(OC)c1	-2.0	1	102	i	0.8	35	127
Fc1ccc(/C=C2\CCCC3=C2NC(=S)NC3c2ccc(F)cc2)cc1 (centres undefined)	-1.4	-5	105	i	0.86	41	76
Cc1ccc2nc(Nc3nc(CSc4nc5ccccc5s4)cc(=O)[nH]3)nc(C)c2c1	0.4	-1	96	/	/	/	/

Quoted from the listing:
Cc1cc(C)cc(N2C(=O)c3nccnc3C2=O)c1 in PKD1 inh shows -8
Fc1ccc(/C=C2\CCCC3=C2NC(=S)NC3c2ccc(F)cc2)cc1 (centres undefined) in HSV replic up primary fold shows 0.86

Other compounds
SMILES	GALR2 ag	PKD1 inh	RGS16-Gao HTS	HSV replic up	HSV replic up primary fold	INS promoter inh	INS promoter inh cell count
N=c1n(CCO)c2ccccc2n1Cc1ccc(Cl)cc1	-4.1	-23	95	i	0.91	43	46
Cc1cc(Oc2nc3c(C)cccn3c(=O)c2/C=C(\C#N)S(=O)(=O)c2ccccc2)ccc1Cl	-0.3	-6	105	i	0.88	/	/
Cc1c(-n2c(SCC(=O)N(C)C3CCS(=O)(=O)C3)nc3ccccc3c2=O)c(=O)n(-c2ccccc2)n1C (centres undefined)	/	-4	101	i	0.93	-17	206
CCCCCCCC(=O)N/N=C/c1ccc([N+](=O)[O-])o1	-1.3	-3	103	i	1.1	/	/
CC(=O)c1ccc(OCC(O)CN2CC(C)OC(C)C2)cc1 (centres undefined)	-0.7	-3	106	i	0.84	7	109
O=C(O)/C=C\C(=O)Nc1ccccc1C(=O)NCc1ccccc1	-2.0	-4	97	i	0.67	19	116
Cc1ccc(S(=O)(=O)NCC(=O)OC(C(=O)c2ccccc2)c2ccccc2)cc1 (centres undefined)	-1.8	1	103	i	0.91	14	176
COC(=O)c1ccc(NC(=S)NCCCn2ccnc2)cc1	/	1	107	i	1	/	/
CC(=O)NCCC(=O)Nc1nc(C)c(Cc2ccc3c(c2)OCO3)s1	-0.6	-7	111	i	0.94	0	42
CC(=O)Nc1sc2c(c1CN1CCCC1)CCCC2	/	/	93	i	1	/	/
CCc1nnc(NC(=O)C2CC(=O)N(Cc3ccco3)C2)s1 (centres undefined)	-1.1	-13	106	i	0.77	/	/
O=C(CSc1nnc(-c2ccccc2F)n1CCc1ccccc1)Nc1ccc2[nH]c(=O)[nH]c2c1	0.2	-11	94	i	0.96	-31	89
CCSc1nc2ccccc2n1CCOc1ccccc1	-2.2	-2	104	i	0.93	13	85
Cc1ccoc1C(=O)NCCCNC(=O)c1occc1C	-1.4	3	96	i	0.93	/	/
O=C(CCCSc1nc2sc3c(c2c(=O)[nH]1)CCC3)NCCCO	-2.6	-6	100	i	0.85	/	/

Compound profiles, as listed above. Order of screens: GALR2 ag	PKD1 inh	RGS16-Gao HTS	HSV replic up	HSV replic up primary fold	INS promoter inh	INS promoter inh cell count
Results for Fc1ccc(/C=C2\CCCC3=C2NC(=S)NC3c2ccc(F)cc2)cc1 (centres undefined) = -1.4	-5	105	i	0.86	41	76
Results for COc1ccc(COC(=O)c2ccc(N3CCCC3=O)cc2)cc1F = -1.2	14	111	i	0.9	-69	88
Results for C=CCN(c1ccc(C(=O)Nc2cccc(C)c2)cc1)S(C)(=O)=O = /	33	101	i	0.94	15	86
Results for O=C(N1CCN(c2ccccc2)CC1)C(F)(F)C(F)F = 0.1	-3	102	i	0.91	-52	101
Results for CC(=O)c1ccc(NC(=O)C(C)OC(=O)c2ccc(NS(=O)(=O)c3ccc(F)c(F)c3)cc2)cc1 (centres undefined) = -0.5	-1	103	i	0.92	15	140

Gathered by group: those above containing a COOH group
SMILES	GALR2 ag	PKD1 inh	RGS16-Gao HTS	HSV replic up	HSV replic up primary fold	INS promoter inh	INS promoter inh cell count
Cn1c(C(=O)O)cc2c(=O)n3ccccc3nc21	/	/	103	i	0.94	/	/
CCOC(=O)c1ccc(NC(=O)CSCCC(=O)O)cc1	/	-4	70	i	1	-20	72
O=C(O)/C=C/c1ccccc1Oc1ccc(Cl)cc1Cl	/	1	170	i	1	-173	44
O=C(O)/C=C\C(=O)Nc1ccccc1C(=O)NCc1ccccc1	-2.0	-4	97	i	0.67	19	116

(listing goes on)
SMILES	GALR2 ag	PKD1 inh	RGS16-Gao HTS	HSV replic up	HSV replic up primary fold	INS promoter inh	INS promoter inh cell count
Nc1c(-c2ccccc2)c(CN2CCOCC2)nn1-c1cccc([N+](=O)[O-])c1	/	-4	98	i	0.99	/	/
COc1ccc(C(=O)Nc2ccc(S(=O)(=O)N3CCCC3)cc2)c(OC)c1	0.3	-3	45	i	0.82	-64	93
CC1=NN2C(=N)/C(=C\c3ccc(SCc4ccccc4)o3)C(=O)N=C2S1	-1.0	-3	102	i	1.2	9	116
O=C1CC(N2CCC(O)(c3ccc(Cl)cc3)CC2)C(=O)N1 (centres undefined)	-0.5	-9	103	i	1.1	-62	120
COc1ccc(OC)c(-c2cc(C3CCN(c4cc(Cl)nc(N)n4)CC3)[nH]n2)c1	-2.0	-12	99	/	/	10	118
CCOc1ccccc1C1C2C(=O)N(c3ccccc3)C(=O)C2ON1c1ccccc1 (centres undefined)	-2.7	-6	104	i	0.95	57	73
COC(=O)c1cccnc1-n1c(=O)c2cccnc2n(Cc2cccc(C(F)(F)F)c2)c1=O	/	0	94	i	0.99	-106	98
COC(=O)c1ccc2c(=O)n(CC3CCCO3)c(SCC(=O)Nc3ccc(OC)cc3OC)nc2c1 (centres undefined)	/	/	104	i	0.93	/	/

From PubChem
